Vaccinia inh = blocks a specific stage of Vaccinia orthopoxvirus infection; Vaccinia-infected cells, mCherry/Venus stage reporter fluorescence; hits give low values; some inactives read as strong as hits; activity change (mCherry), % (test concentration not listed); 89,000 tested, 0.01% active;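 active means mCherry past -33% and 40 or more points under the early reporter, replicates agreeing; inconclusive means past -33% without that gap or agreement; tested in A549 cells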;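 further: scaled between vehicle wells and reference inhibitor wells; 23 nL library stock went into each well; one replicate is shown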
Vaccinia inh Venus = further read-out of Vaccinia inh, marked with its call; activity change (Venus), %; measured here: Venus reporter, other viral stage;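 negative = less Venus signal; first of two replicates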
Active calls of the source: *; u = inconclusive; x = not tested or not shown; & = joins results of further samples.

SMILES	Vaccinia inh	Vaccinia inh Venus
COc1ccc(C[C@H]2CCn3cc(nn3)COC[C@H](CC(C)C)NC2=O)cc1	12.9	9.7
Cc1ccc(S(=O)(=O)Nc2ccc3c(c2)C(=O)N([C@H](C)CO)C[C@H](C)[C@H](CN(C)C(=O)NC(C)C)O3)cc1	2.3	2.3
Cc1ccc(OC(=O)N(C)C[C@H]2OCc3cn(nn3)CCCC(=O)N([C@@H](C)CO)C[C@@H]2C)cc1	10.5&2.6	1.3&4.5
CC(C)NC(=O)Nc1ccc2c(c1)CC(=O)N([C@@H](C)CO)C[C@H](C)[C@@H](CN(C)C(=O)Nc1ccc(C(F)(F)F)cc1)O2	1.3	4.3
COc1ccccc1-c1ccc2n(c1=O)C[C@H]1[C@H](CO)[C@@H](C(=O)O)N(C(=O)c3cccnc3)[C@@H]21	5.8	18.3
COc1ccc(NC(=O)Nc2ccc3c(c2)C(=O)N([C@@H](C)CO)C[C@@H](C)[C@@H](CN(C)Cc2ccc(C(F)(F)F)cc2)OCCCC[C@H](C)O3)cc1	-10.6	-11.5
COc1cccc(S(=O)(=O)N(C)C[C@@H]2Oc3ncc(C#CCC(C)C)cc3C(=O)N([C@@H](C)CO)C[C@H]2C)c1	u	x
Cc1noc(C)c1NC(=O)Nc1cccc2c1O[C@H](CN(C)Cc1ccc(Cl)c(Cl)c1)[C@@H](C)CN([C@H](C)CO)C2=O	-16.5	-13.7
C[C@H](CO)N1C[C@H](C)[C@@H](CN(C)Cc2ccccc2)Oc2ccc(NC(=O)Cn3cnnn3)cc2CC1=O	13.3	14.2
COc1ccc(S(=O)(=O)N[C@H]2CC[C@H](CC(=O)O)O[C@H]2CO)cc1	7.6	7.1
C[C@H]1CN([C@@H](C)CO)C(=O)c2cccc(NC(=O)CCCCCC(=O)Nc3ccccc3N)c2O[C@@H]1CN(C)Cc1ccc(Cl)c(Cl)c1	u	x
COC(=O)C[C@@H]1CC[C@H]2[C@@H](COC[C@@H](O)CN2S(=O)(=O)c2ccccc2C)O1	5.2	11.8
C[C@@H]1CN([C@@H](C)CO)C(=O)c2cc(NC(=O)C3CCCCC3)ccc2O[C@@H](C)CCCCO[C@@H]1CN(C)S(=O)(=O)c1cccs1	8.4	-0.6
C[C@H]1CN([C@@H](C)CO)C(=O)c2cccc(NS(=O)(=O)c3ccccc3)c2O[C@H]1CN(C)C	19.3	4.7
C[C@H]1CN([C@@H](C)CO)C(=O)c2cc(NC(=O)Nc3ccc(F)cc3)ccc2O[C@@H]1CN(C)C	13.6	10.1
O=C(Nc1ccc2c(c1)[C@@H]1C[C@@H](CC(=O)N3CCCCC3)O[C@H](CO)[C@@H]1O2)c1ccc2c(c1)OCO2	18.9	7.1
O=C(CC(F)(F)F)N1C[C@H]2[C@@H](c3ccccc31)[C@H](CO)N2C(=O)C1CCOCC1	8.7	14.1
CCCN(C)C[C@H]1Oc2cc(C#Cc3cccnc3)ccc2S(=O)(=O)N([C@H](C)CO)C[C@H]1C	1.0	-2.1
COCc1cn(CC[C@@H]2CC[C@@H](NC(=O)Nc3ccccc3)[C@H](CO)O2)nn1	22.3	26.7
C[C@H](CO)N1C[C@H](C)[C@H](CN(C)S(=O)(=O)c2ccc(Cl)cc2)OCCCC[C@H](C)Oc2ccc(NS(=O)(=O)c3ccc(F)cc3)cc2C1=O	-30.5	-18.8
C/C=C/c1ccc2c(c1)O[C@@H](CN(C)C(=O)Nc1cccc(F)c1)[C@@H](C)CN([C@H](C)CO)S2(=O)=O	u	x
O=C(C[C@H]1CC[C@H]2[C@@H](COC[C@H](O)CN2S(=O)(=O)c2ccc(Cl)cc2)O1)NCCN1CCCC1	8.4	3.1
C[C@@H]1CN([C@H](C)CO)C(=O)c2cc(NS(=O)(=O)c3cn(C)cn3)ccc2O[C@@H]1CN(C)Cc1ccc(-c2ccccc2)cc1	7.9	13.0
CCCN(C)C[C@@H]1Oc2ncc(-c3ccccc3OC)cc2C(=O)N([C@@H](C)CO)C[C@H]1C	4.6	-1.1
C[C@@H]1CN([C@@H](C)CO)C(=O)c2cc(NC(=O)Nc3ccc4c(c3)OCO4)ccc2O[C@@H](C)CCCCO[C@@H]1CN(C)C(=O)Cc1ccccc1	24.7	3.8
CN(C)C(=O)C[C@@H]1C=C[C@@H](NC(=O)NC2CCCC2)[C@H](CO)O1	12.3	11.0
Cc1noc(C)c1S(=O)(=O)Nc1cccc2c1O[C@H](CN(C)Cc1ccc(C(=O)O)cc1)[C@@H](C)CN([C@H](C)CO)C2=O	11.0	8.2
COc1ccc(S(=O)(=O)N[C@H]2C=C[C@H](CC(=O)N3CCC(Cc4ccccc4)CC3)O[C@@H]2CO)cc1	u	x
C[C@@H]1CN([C@@H](C)CO)C(=O)CCCn2nncc2CO[C@H]1CN(C)S(=O)(=O)c1ccc(-n2cccn2)cc1	4.8	8.6
C[C@@H]1CN([C@H](C)CO)C(=O)c2cc(-c3ccccc3)cnc2O[C@H]1CN(C)C(=O)c1ccccc1F	8.7	1.4
Cc1ccc(S(=O)(=O)N[C@H]2CC[C@H](CC(=O)NCc3ccccc3F)O[C@H]2CO)cc1	-4.0	-2.9
N#C[C@H]1[C@@H](c2ccc(C#CC3CC3)cc2)[C@@H](CO)N1C(=O)Nc1ccc(F)cc1	-4.3	-5.7
CO[C@H]1CN(C)C(=O)c2ccc(NC(=O)Nc3c(C)noc3C)cc2OC[C@@H](C)N(CC2CC2)C[C@@H]1C	9.9	11.2
CCC(=O)N1CCC2(CC1)CN(Cc1ccccc1Cl)[C@@H](CO)c1c2c2ccc(OC)cc2n1C	-5.0	-12.6
C[C@@H]1CN([C@H](C)CO)C(=O)c2cc(NC(=O)Nc3ccc4c(c3)OCO4)ccc2O[C@@H]1CN(C)C(=O)Nc1ccc2c(c1)OCO2	11.9	7.3
CCNC(=O)C[C@@H]1C=C[C@H](NC(=O)C2CC2)[C@@H](CO)O1	5.8	3.8
CO[C@@H]1CN(C)C(=O)c2ccc(NC(=O)c3ccccc3F)cc2OC[C@@H](C)N(CC2CCOCC2)C[C@@H]1C	7.4	4.6
O=C(C[C@@H]1C=C[C@@H](NC(=O)C2CC2)[C@@H](CO)O1)Nc1ccccc1	3.2	-1.0
Cc1ccccc1S(=O)(=O)N1CCCCN2[C@H](CO)[C@H](c3ccc(-c4ccccc4)cc3)[C@H]2C1	u	x
Cc1ccccc1NC(=O)C[C@H]1CC[C@H]2[C@@H](COc3ccc(NC(=O)C4CCC4)cc3C(=O)N2C)O1	6.2	14.2
O=C(C[C@H]1CC[C@@H]2[C@H](COC[C@@H](O)CN2S(=O)(=O)c2ccc(F)cc2)O1)NCC1CC1	16.7	15.0
CCC(=O)N1C[C@H](C)[C@H](OC)CN(C)C(=O)c2ccc(NC(=O)NC(C)C)cc2OC[C@H]1C	1.2	0.2
C/C=C/c1ccc([C@H]2[C@@H](CO)N(S(C)(=O)=O)[C@H]2CNC(C)C)cc1	-3.8	1.7
O=C(Cc1ccccn1)N1CC(=O)N2[C@H](CO)[C@H](c3ccc(-c4ccc(F)cc4)cc3)[C@H]2C1	5.2	-2.1
CCC(=O)Nc1ccc2c(c1)C(=O)N(C)C[C@H](OC)[C@@H](C)CN(Cc1ccccc1OC)[C@H](C)CO2	-21.9	-13.0
O=C(Cc1cccnc1)N1CC(=O)N2[C@@H](CO)[C@H](c3ccc(/C=C/c4ccccc4)cc3)[C@@H]2C1	-5.6	0.2
C[C@@H]1CN([C@@H](C)CO)C(=O)c2cc(-c3cncnc3)cnc2O[C@H]1CN(C)C(=O)CN1CCOCC1	15.3	5.3
CN(C)CC(=O)N1CC[C@@H]2[C@H]1c1cc(-c3ccccc3)ccc1N(C)[C@H]2CO	-0.5	-8.6
C[C@H]1CN([C@@H](C)CO)C(=O)c2cccc(NC(=O)c3cnccn3)c2O[C@H]1CN(C)Cc1ccccc1	-2.3	2.5
C[C@H](CO)N1C[C@H](C)[C@@H](CN(C)Cc2ccc(Cl)c(Cl)c2)OCCCC[C@H](C)Oc2ccc(NC(=O)c3ccccc3)cc2C1=O	-26.9	-19.6
Cc1noc(C)c1NC(=O)Nc1ccc2c(c1)C(=O)N([C@@H](C)CO)C[C@H](C)[C@@H](CN(C)S(C)(=O)=O)O2	4.5	5.2
CCO[C@@H]1OC(C(=O)Nc2ccccc2)=C[C@H](c2ccc(C(F)(F)F)cc2)[C@H]1CCCO	-14.7	-2.9
O=C(CN1CCOCC1)NC[C@@H]1N[C@@H](CO)[C@@H]1c1ccc(-c2ccccc2)cc1	-20.4	-16.0
CCCNC(=O)N1C[C@H](O)COC[C@H]2O[C@@H](CC(=O)N3CCCCC3)CC[C@@H]21	8.2	5.5
O=C(c1cnccn1)N1CC(=O)N2[C@H](CO)[C@H](c3ccc(C#CCc4ccccc4)cc3)[C@H]2C1	10.9	-13.3
OC[C@@H]1[C@@H](c2ccc(C#CC3CC3)cc2)[C@@H]2CN(CCC(F)(F)F)CCCCN12	u	x
COc1ccc(NC(=O)Nc2ccc3c(c2)C(=O)N([C@@H](C)CO)C[C@H](C)[C@@H](CN(C)S(=O)(=O)c2cccs2)OCCCC[C@@H](C)O3)cc1	5.0	7.2
C[C@H]1CN([C@@H](C)CO)C(=O)Cc2cc(NC(=O)Cn3cnnn3)ccc2O[C@H]1CN(C)Cc1ccccc1	14.0	13.4
COc1ccccc1CNC(=O)C[C@H]1CC[C@H]2[C@@H](COc3ccc(NC(=O)Nc4ccc(F)c(F)c4)cc3C(=O)N2C)O1	13.5	13.0
CO[C@@H]1CN(C)C(=O)c2cc(NC(=O)c3ccccc3)ccc2OC[C@H](C)N(C(C)=O)C[C@@H]1C	-6.7	-4.5

At a glance, 10 of the compounds above:
SMILES	Vaccinia inh	Vaccinia inh Venus
C[C@H]1CN([C@@H](C)CO)C(=O)c2cccc(NC(=O)c3cnccn3)c2O[C@H]1CN(C)Cc1ccccc1	-2.3	2.5
C[C@H](CO)N1C[C@H](C)[C@@H](CN(C)Cc2ccc(Cl)c(Cl)c2)OCCCC[C@H](C)Oc2ccc(NC(=O)c3ccccc3)cc2C1=O	-26.9	-19.6
Cc1noc(C)c1NC(=O)Nc1ccc2c(c1)C(=O)N([C@@H](C)CO)C[C@H](C)[C@@H](CN(C)S(C)(=O)=O)O2	4.5	5.2
CCO[C@@H]1OC(C(=O)Nc2ccccc2)=C[C@H](c2ccc(C(F)(F)F)cc2)[C@H]1CCCO	-14.7	-2.9
O=C(CN1CCOCC1)NC[C@@H]1N[C@@H](CO)[C@@H]1c1ccc(-c2ccccc2)cc1	-20.4	-16.0
CCCNC(=O)N1C[C@H](O)COC[C@H]2O[C@@H](CC(=O)N3CCCCC3)CC[C@@H]21	8.2	5.5
O=C(c1cnccn1)N1CC(=O)N2[C@H](CO)[C@H](c3ccc(C#CCc4ccccc4)cc3)[C@H]2C1	10.9	-13.3
OC[C@@H]1[C@@H](c2ccc(C#CC3CC3)cc2)[C@@H]2CN(CCC(F)(F)F)CCCCN12	u	x
COc1ccc(NC(=O)Nc2ccc3c(c2)C(=O)N([C@@H](C)CO)C[C@H](C)[C@@H](CN(C)S(=O)(=O)c2cccs2)OCCCC[C@@H](C)O3)cc1	5.0	7.2
C[C@H]1CN([C@@H](C)CO)C(=O)Cc2cc(NC(=O)Cn3cnnn3)ccc2O[C@H]1CN(C)Cc1ccccc1	14.0	13.4

The results go on.
SMILES	Vaccinia inh	Vaccinia inh Venus
COc1ccc(CN(C)C[C@H]2OCCCC[C@H](C)Oc3ccc(NS(=O)(=O)c4cccs4)cc3C(=O)N([C@H](C)CO)C[C@@H]2C)cc1	-19.6	-13.5
CCC(=O)N1[C@@H]2Cn3c(ccc(C4=CCCC4)c3=O)[C@H]1[C@@H](C(=O)OC)[C@@H]2CO	5.0	10.4
O=C(NC[C@H]1CC[C@H]2[C@H](CN2C(=O)Cc2ccncc2)O1)C1CCOCC1	6.5	7.0
C[C@@H]1CCCCO[C@H](CN(C)Cc2ccc3c(c2)OCO3)[C@H](C)CN([C@@H](C)CO)C(=O)c2cc(NS(=O)(=O)c3ccc(F)cc3)ccc2O1	u	x
O=C(C[C@H]1CC[C@H]2[C@@H](COC[C@H](O)CN2C(=O)c2ccccc2F)O1)N1CCOCC1	6.3	7.9
C[C@H]1CCCCO[C@@H](CN(C)C(=O)Cc2ccccc2)[C@@H](C)CN([C@@H](C)CO)C(=O)c2cc(NC(=O)c3ccncc3)ccc2O1	-3.8	-3.4
CC(C)C#Cc1ccc2c(c1)O[C@H](CN(C)C(=O)CC1CC1)[C@H](C)CN([C@@H](C)CO)S2(=O)=O	-23.7	-19.7
O=C(C[C@H]1C[C@H]2c3cc(NC(=O)Cc4ccncc4)ccc3O[C@H]2[C@@H](CO)O1)NCc1ccncc1	3.2	-3.6
C[C@H](O)C#Cc1cnc2c(c1)C(=O)N([C@H](C)CO)C[C@H](C)[C@@H](CN(C)CC1CCOCC1)O2	11.9	7.5
CC(C)NC(=O)Nc1ccc2c(c1)C(=O)N([C@@H](C)CO)C[C@@H](C)[C@H](CN(C)C(=O)Nc1ccc(C(F)(F)F)cc1)OCCCC[C@H](C)O2	-30.2	-23.2
C[C@H](CO)N1C[C@H](C)[C@@H](CN(C)Cc2cccnc2)Oc2cc(-c3ccncc3)ccc2S1(=O)=O	12.1	1.1
O=C(c1ccccc1)N1CC(=O)N2[C@H](CO)[C@H](c3ccc(-c4ccccc4)cc3)[C@@H]2C1	-0.8	-8.9
CCC(=O)N(C)C[C@H]1Oc2ncc(C#Cc3ccc(OC)cc3)cc2C(=O)N([C@@H](C)CO)C[C@H]1C	10.7	6.8
COc1cccc(NC(=O)N[C@@H]2C=C[C@@H](CC(=O)Nc3ccc(-c4ccccc4)cc3)O[C@@H]2CO)c1	1.4	-11.6
COc1ccc(NC(=O)N(C)C[C@H]2OCCCC[C@@H](C)Oc3ccc(NC(=O)Nc4ccc5c(c4)OCO5)cc3C(=O)N([C@H](C)CO)C[C@H]2C)cc1	8.3	8.8
C[C@H](NC(=O)C[C@H]1C[C@H]2c3cc(NC(=O)c4cccnc4)ccc3O[C@H]2[C@H](CO)O1)c1ccccc1	1.3	8.0

An excerpt, so the mix of outcomes need not match the whole.
